# GALR2 agonist: GALR2 receptor agonists, primary screen, cell-based; GALR2-expressing cells, agonist activation read-out; 0.48% of 140,000 active; AID 803, 2007; activation, %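 (tested at 5 µM)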;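 active means above mean plus 3 SD of all compounds, about 5% in these data, not always enough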;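 further: 0% = vehicle buffer wells and 100% = reference agonist at full effect; tested in CHO reporter cells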
# Insulin prom inh: inhibitors of insulin promoter-driven GFP, primary screen, imaging, TRM-6 cells (human fetal islet line), eGFP reporter, cell count. reporter expression induced with tamoxifen. inhibition, % at 2 µM. 0.9% of 130,000 active;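 active means inhibition above the mean plus 3 SD, with well images judged a real hit on visual review, cut at about 60% in these data, passing the limit was not always enough; inconclusive means inhibition over the cutoff but images rejected on review; inactive means inhibition not above the cutoff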
# HSV augment: enhancers of HSV replication in host cells, fold increase, host cell viability; HSV replication augmentation in cells; maximum fold increase; AID 1956, 2009; 0.005% of 220,000 active;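 active means peak rise of 1.5-fold or more in the series; inconclusive means self-fluorescent or not available for retest; tested in PC3 cells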;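 further: first round at 10 µM; read as green reporter fluorescence; hits show the peak of a series up to 25 µM; 1 = signal of infected wells without compound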
# PKD1 kinase inh: inhibitors of human PKD1 kinase, biochemical, fluorescence polarization. Serine/threonine-protein kinase D1 (Homo sapiens), Q15139. PKD1 kinase fluorescence polarization assay. inhibition, %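 (about 10 µM by stock and volumes)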. 0.056% of 200,000 active. AID 797, 2007;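 active means inhibition of 50% or more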;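 further: controls were vehicle for no effect and a reference inhibitor for full effect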
# Target sequence (Q15139 whole entry, looked up): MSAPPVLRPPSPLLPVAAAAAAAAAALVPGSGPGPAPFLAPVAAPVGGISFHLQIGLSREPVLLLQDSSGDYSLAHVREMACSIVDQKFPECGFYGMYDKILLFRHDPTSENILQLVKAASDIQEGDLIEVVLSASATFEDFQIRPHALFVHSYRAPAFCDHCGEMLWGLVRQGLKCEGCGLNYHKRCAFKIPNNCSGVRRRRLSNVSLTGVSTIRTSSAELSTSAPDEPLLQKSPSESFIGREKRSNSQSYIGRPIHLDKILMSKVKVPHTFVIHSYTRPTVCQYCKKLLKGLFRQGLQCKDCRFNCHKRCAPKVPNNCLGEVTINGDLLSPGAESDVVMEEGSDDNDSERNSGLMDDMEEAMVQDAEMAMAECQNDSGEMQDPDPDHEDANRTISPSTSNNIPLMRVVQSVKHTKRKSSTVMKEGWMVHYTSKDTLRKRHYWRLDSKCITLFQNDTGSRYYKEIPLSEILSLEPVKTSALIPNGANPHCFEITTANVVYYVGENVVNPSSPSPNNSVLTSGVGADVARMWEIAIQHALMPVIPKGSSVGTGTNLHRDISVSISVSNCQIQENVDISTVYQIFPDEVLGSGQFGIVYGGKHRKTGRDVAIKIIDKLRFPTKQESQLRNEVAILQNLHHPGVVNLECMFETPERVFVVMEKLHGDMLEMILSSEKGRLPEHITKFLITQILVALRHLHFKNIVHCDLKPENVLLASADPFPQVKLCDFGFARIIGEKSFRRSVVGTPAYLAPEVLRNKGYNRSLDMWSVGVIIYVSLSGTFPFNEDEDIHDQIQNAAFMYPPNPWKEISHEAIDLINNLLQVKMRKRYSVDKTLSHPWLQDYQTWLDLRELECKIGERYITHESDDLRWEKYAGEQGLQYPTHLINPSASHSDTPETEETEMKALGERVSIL
# RGS16-Gao: modulators of RGS16 binding to Galphao, primary screen, biochemical, human proteins, multiplexed bead flow cytometry; 0.38% of 220,000 active; bead-based flow cytometry RGS16-Galphao binding, fluorescence; actives lie on both sides; binding response (% of control), % at 10 µM;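 active means below 25% or above 175%, edge rows of some plates excepted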;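 further: Galphao activated by GDP with aluminum fluoride before binding; 100% = wells without compound and 0% = beads without RGS; some results beyond the cut were filed as inactive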
# Insulin prom inh cell count: further read-out of Insulin prom inh, marked with its call; normalized cell count, %; measured here: cell count, toxicity; reference of the scale not given here;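 cells exposed to compound for 48 h; stained nuclei by imaging scaled within each plate; lower means fewer cells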
# HSV augment primary fold: also measured in HSV augment; calls as there; fold increase; compound at 10 µM; measured here: primary screen fold increase 10 uM; tested in PC3 cells;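 GFP signal in the first replicate; 1 = infected wells without compound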
# Numbers without * were called inactive; i = inactive; ? = inconclusive; / = not tested or not shown. Compounds were not picked by outcome, and some 1.3% of all compounds hit somewhere here.
SMILES,GALR2 agonist,Insulin prom inh,Insulin prom inh cell count,HSV augment,HSV augment primary fold,PKD1 kinase inh,RGS16-Gao
COc1ccc(-c2c(C(C)=O)c(C)nc3sc4c(=N)n(N)cnc4c23)cc1,-0.4,/,/,?,/,-7,106
O=C(CSc1nccc(=O)[nH]1)c1c[nH]c2ccccc12,/,/,/,i,0.88,/,106
CSc1cccc(NC(=S)N(CCN(C)C)C(C)c2ccncc2)c1 (centres undefined),/,/,/,i,0.89,/,103
CC(C)CC(C(=O)NC1CCCC1)N(Cc1cccs1)C(=O)c1snc(C(N)=O)c1N (centres undefined),-2.5,-32,111,i,0.97,-8,103
CCCC(=Nc1ccc(N)cc1)C1=C(O)C(C(=O)OC)C(C)(C)CC1=O (centres undefined),-1.2,23,138,i,0.98,-5,98
CC1(C)Cc2c(ccc3ccccc23)C(NNC(=O)c2cccnc2)=N1,-2.5,-8,40,i,0.85,-4,129
COc1cccc(C(=O)Nc2ccc(F)c(F)c2F)c1,-0.1,-50,67,i,0.97,5,100
O=C(CC(O)(c1ccccc1)C(F)(F)F)c1cccs1 (centres undefined),-1.0,-14,84,i,0.95,-12,113
Cc1cccc(C(=O)N[C@H](C(=O)Nc2nc3ccc(S(C)(=O)=O)cc3s2)C(C)C)c1,/,/,/,i,0.96,5,99
CC(C)NC(=O)NC(=O)COC(=O)c1ncc(Cl)c(Cl)c1Cl,/,/,/,i,1.4,1,93
COc1ccc(NC(=O)C2CCCN(S(=O)(=O)c3c(C)n[nH]c3C)C2)cc1OC (centres undefined),/,/,/,i,0.96,1,94
CC(=O)Nc1ccc2c(c1)nc1n2CCSC1,-0.7,-8,119,i,1.1,-11,107
CC(=O)N(CN1C(=O)CCC1=O)c1ccc(Cl)c(Cl)c1,/,28,99,i,1.1,-2,102
COc1ccc(/C(O)=C2/C(=O)C(=O)N(CCN3CCOCC3)C2c2ccc(C)cc2)cc1 (centres undefined),-2.5,-3,124,i,1,7,110
Cc1ccc(C)c(S(=O)(=O)NCc2ccc(C(=O)N3CC(C)OC(C)C3)cc2)c1 (centres undefined),-0.3,10,88,i,1,4,105
CCOc1cc(C)nc(NCCc2ccc(OC)c(OC)c2)n1,-3.5,6,99,i,0.91,-2,101
COC(=O)c1cc(C(=O)c2ccccc2)n2c(=O)/c(=C\N(C)C)sc12,/,/,/,i,0.95,/,106
C[C@H](NC(=O)OCc1ccccc1)C(=O)NNC(=O)[C@H](Cc1ccccc1)NC(=O)OC(C)(C)C,/,/,/,i,1.3,/,104
O=C(CSc1nc(O)cc(=O)n1-c1ccccc1)NC1CCCCC1,-0.2,31,157,i,0.98,2,101
Cc1[nH]nc(SCC(=O)NCc2ccccc2)c1[N+](=O)[O-],-1.7,-54,54,i,1,-3,106
COCCN1C=C2C(=O)C(C)(OC(=O)CCc3ccccc3)C(=O)C=C2C=C1c1ccc(C#N)cc1 (centres undefined),/,/,/,i,0.91,/,95
COCCSc1ccccc1C(=O)Nc1ccc(Cl)cc1,/,/,/,i,0.99,2,97
CCOC(=O)C1CN(S(=O)(=O)c2ccc(C)cc2)C1,-0.5,-14,60,i,0.9,-4,106
CCOc1ccc(C(=O)NCc2cccnc2)cc1,-1.0,/,/,i,0.92,-8,97
O=C(NC(=S)Nc1cccnc1)c1cc2ccccc2o1,-0.1,-50,94,/,/,-2,109
CC1CCCC2(C1)NC(=S)c1c(sc3c1CCCC3)N2 (centres undefined),-2.2,-392,81,i,0.95,2,64
O=C(Nc1ccccc1[N+](=O)[O-])C1(c2ccccc2)CCOCC1,/,/,/,i,1.1,-2,110
Cc1ccc(Cn2c(C)nc3c(c2=O)c2nc4ccccc4nc2n3Cc2ccco2)cc1,-0.2,14,165,/,/,-5,89
CCCn1c(N)c(C(=O)CN2CCN(S(=O)(=O)c3cccs3)CC2)c(=O)[nH]c1=O,-1.1,/,/,i,0.95,-5,99
Cc1ccc(/C=C/C(=O)N2CCN(Cc3ccccc3)CC2)o1,-0.4,-12,105,i,1,-18,93
NC(=O)CCC(NS(=O)(=O)c1ccc(Cl)cc1)C(=O)NCc1ccccc1 (centres undefined),0.6,/,/,i,1.1,-10,100
CCOCc1[nH]c(=S)[nH]c(=O)c1Cc1ccc(OCC(C)C)cc1,/,41,131,i,0.96,1,96
O=C(c1cccc(Cl)c1)N1CCN(C(=O)c2ccco2)CC1,-2.5,-53,129,i,1,7,106
O=C(CNc1cccc([N+](=O)[O-])c1)N/N=C/c1ccc([N+](=O)[O-])o1,/,0,91,i,0.79,2,104
Cc1c(NC(=O)/C=C/c2cn(-c3ccccc3)nc2-c2ccccc2)c(=O)n(-c2ccccc2)n1C,-1.6,50,138,i,0.9,11,100
CN(C)CC(C)(C)CNC(=O)C1CCN(Cc2ccccc2O)CC1,-2.2,/,/,i,0.99,-2,107
Cc1nnc(SCC(=O)N2CCCCC2)n1CC1CCCO1 (centres undefined),-2.5,38,146,i,0.96,-1,112
Cc1ccccc1-c1nc(CN2CCCC(C(=O)NCCCN3CCOCC3)C2)c(C)o1 (centres undefined),-3.9,-93,128,/,/,12,104
CCOC(=O)C1=C(c2ccc(OC)cc2)OC(N)=C(C#N)C1c1cccnc1 (centres undefined),/,/,/,i,0.98,/,97
CC(C)C(=O)NNc1ccc(C(F)(F)F)cn1,/,/,/,i,0.71,/,98
Cc1onc(-c2ccccc2Cl)c1C(=O)N1CCN(Cc2ccc3c(c2)OCO3)CC1,/,3,133,i,0.96,-1,110
Cc1ccc(CNC(=O)C2CCCN(S(=O)(=O)c3c(C)noc3/C=C/N(C)C)C2)cc1 (centres undefined),/,/,/,i,0.94,/,98
O=C(NCCn1cc(SCc2ccccc2)c2ccccc21)c1c(F)cccc1F,-1.4,19,93,i,0.69,-10,/
O=C1c2ccccc2C(=O)N1Cc1cnc(N2CCN(c3ccccc3)CC2)s1,/,/,/,i,0.75,-1,104
Cc1ccsc1/C=N/Nc1cccc(C(=O)O)c1,/,/,/,i,1,-6,100
CCOc1ccccc1CNCCNC(=O)c1nonc1N,/,/,/,i,1.1,/,103
COCCn1c(=O)c2cc3c(=O)n(CCOC)c(=O)c3cc2c1=O,-0.8,40,56,i,0.54,4,104
Cc1ccccc1NC(=O)c1cc(=O)c2ccccc2o1,-0.4,-14,82,i,0.73,1,102
COc1ccc(CC(=O)n2nc(-c3cccnc3)nc2N)cc1,-0.8,-44,41,i,0.92,-9,94
S=C(NCc1ccco1)NCC1CCCO1 (centres undefined),/,12,145,i,0.99,0,99
O=C(Nc1cccnc1)c1cnn2c(C(F)F)cc(C3CC3)nc12,2.0,15,122,i,0.95,-7,102
COc1cc(NC(=O)C2=C(N3CCOCC3)/C(=C\c3ccc(N(C)C)cc3)CCC2)cc(OC)c1OC,0.6,19,104,i,1.1,-2,89
COCCNC(=O)CN(C(=O)c1ccc(N2CCCC2)nc1)c1ccccc1,/,i,24,i,0.94,-4,125
CN(C)S(=O)(=O)Oc1ccc(C(=O)Nc2ccc([N+](=O)[O-])cc2)cc1,/,/,/,i,0.95,0,111
CCCC(=O)c1ccc(N2CCCC2)c(F)c1,-1.1,-469,39,i,0.95,-13,105
CCOC(=O)c1cnc2cc(C)nn2c1C,-0.8,/,/,i,1,2,108
CCOc1ccccc1C1CC(=O)Nc2cc3c(cc21)OCO3 (centres undefined),0.5,/,/,i,0.61,-4,101
O=C(c1ccc(-n2c(SCc3cc(F)ccc3F)nc3ccccc3c2=O)cc1)N1CCOCC1,-1.0,26,125,i,0.92,0,83
CCN1CCN(P2(=O)C=C(c3ccccc3)OC(c3ccccc3)=C2)CC1,-1.3,/,/,i,0.91,-8,102
Cc1onc(-c2c(Cl)cccc2Cl)c1NC(=O)NNc1ccccn1,/,/,/,i,0.97,/,98
# Carrying on:
SMILES,GALR2 agonist,Insulin prom inh,Insulin prom inh cell count,HSV augment,HSV augment primary fold,PKD1 kinase inh,RGS16-Gao
NC(=O)CC(NC(=O)c1ccc(Br)cc1)c1ccc(NCCc2ccc(F)cc2)c([N+](=O)[O-])c1 (centres undefined),/,/,/,i,0.6,/,98
O=C1NC(=O)C(CC(=O)N(Cc2ccco2)C2(C(=O)NC3CCCCC3)CCCCC2)N1 (centres undefined),-1.5,-31,116,i,0.96,-16,93
Cc1nn(CCC#N)c(NC(=O)c2ccc(Cl)cc2)c1P(=O)(Nc1ccc([N+](=O)[O-])cc1)N1CCOCC1 (centres undefined),-2.9,-28,53,i,1.2,-2,103
O=C(CN(c1cccc(C(F)(F)F)c1)S(=O)(=O)c1ccc(Cl)c([N+](=O)[O-])c1)NCc1ccc(F)cc1,-0.5,-31,138,i,0.5,8,101
CN(C)C(=O)c1ccc2c(c1)C1C3CCC(C3)C1C(c1ccccc1)N2 (centres undefined),-0.5,/,/,i,0.92,-3,104
Cc1cc2ncn(C(=O)c3c(-c4ccccc4Cl)noc3C)c2cc1C,-1.1,/,/,i,0.98,-6,101
COc1ccc(CC(=O)Nc2ccc(-c3noc(-c4cc(OC)c(OC)c(OC)c4)n3)cc2)cc1,-1.6,-26,86,i,0.88,-2,117
COc1ccc2cnn(CCOc3ccccc3)c(=O)c2c1OC,0.8,/,/,i,0.88,2,102
O=C(O)CC1=C(Nc2ccccc2)C(=O)N(c2ccccc2)C1c1ccc(Cl)cc1 (centres undefined),/,/,/,i,0.88,/,105
COCCn1nnnc1C(C(C)C)N1CCN(C(=O)c2ccco2)CC1 (centres undefined),0.0,-45,80,i,0.92,0,109
O=C(NNC(=O)C1CC1)c1ccc(-c2ccccc2)cc1,-0.5,4,97,i,0.95,-7,93
Cc1ccnc2nc(C(=O)OCCOc3ccccc3)nn12,-0.6,/,/,i,1,-12,125
O=C1C(NS(=O)(=O)c2cccs2)=C(N2CCOCC2)C(=O)c2ccccc21,/,/,/,i,0.99,/,100
O=C(COC(=O)/C=C/c1cccc(Cl)c1)NCCC1=CCCCC1,-1.6,10,136,i,0.92,9,104
CCc1ccc(C2=NN(CCC(=O)NC(C)c3ccc4c(c3)OCCO4)C(=O)CC2)cc1 (centres undefined),/,-43,58,i,0.85,-1,99
O=Cc1ccc(-n2nncc2-c2ccc([N+](=O)[O-])cc2)cc1,/,/,/,i,1.1,6,76
Cn1c(=O)n(CCC(=O)O)c2ccccc21,-4.0,/,/,/,/,-10,98

# Filtered by structure, the entries above containing an aryl methoxy group
SMILES,GALR2 agonist,Insulin prom inh,Insulin prom inh cell count,HSV augment,HSV augment primary fold,PKD1 kinase inh,RGS16-Gao
COc1ccc(-c2c(C(C)=O)c(C)nc3sc4c(=N)n(N)cnc4c23)cc1,-0.4,/,/,?,/,-7,106
COc1cccc(C(=O)Nc2ccc(F)c(F)c2F)c1,-0.1,-50,67,i,0.97,5,100
COc1ccc(NC(=O)C2CCCN(S(=O)(=O)c3c(C)n[nH]c3C)C2)cc1OC (centres undefined),/,/,/,i,0.96,1,94
COc1ccc(/C(O)=C2/C(=O)C(=O)N(CCN3CCOCC3)C2c2ccc(C)cc2)cc1 (centres undefined),-2.5,-3,124,i,1,7,110
CCOc1cc(C)nc(NCCc2ccc(OC)c(OC)c2)n1,-3.5,6,99,i,0.91,-2,101
CCOC(=O)C1=C(c2ccc(OC)cc2)OC(N)=C(C#N)C1c1cccnc1 (centres undefined),/,/,/,i,0.98,/,97
COc1ccc(CC(=O)n2nc(-c3cccnc3)nc2N)cc1,-0.8,-44,41,i,0.92,-9,94
COc1cc(NC(=O)C2=C(N3CCOCC3)/C(=C\c3ccc(N(C)C)cc3)CCC2)cc(OC)c1OC,0.6,19,104,i,1.1,-2,89
COc1ccc(CC(=O)Nc2ccc(-c3noc(-c4cc(OC)c(OC)c(OC)c4)n3)cc2)cc1,-1.6,-26,86,i,0.88,-2,117
COc1ccc2cnn(CCOc3ccccc3)c(=O)c2c1OC,0.8,/,/,i,0.88,2,102

# Assay outcomes deposited in PubChem BioAssay by several laboratories.
